VACV mCherry inh = inhibitors of vaccinia virus infection (mCherry reporter signal) | Vaccinia virus mCherry reporter infection, fluorescence; about a quarter of the inactives have no number | Potency, µM (highest dose often 36.5 µM), without a hit: at the top dose activity change, negative = inhibition, usual class: inhibitors | hit rate 0.63% among 310,000 | AID 720579; active = well fitted inhibition curve with a large enough effect; inconclusive = small, poorly fitted or top-dose-only effect; inactive = no such curve, though single readings can be large or run the other way; tested in A549 cells; note: nearly all actives have a fitted effect of over 35% in size; inactives centre near -10
Vaccinia Venus = inhibitors of vaccinia virus (Venus reporter). Vaccinia virus Venus reporter expression, fluorescence. Potency, µM (top dose mostly 36.5 µM), without a hit: at the top dose activity change, negative = inhibition, usual class: inhibitors. hit rate 0.46% among 330,000; active means well fitted inhibition curve with a large enough effect; inconclusive means small, poorly fitted or top-dose-only effect; inactive means no such curve, though single readings can be large or run the other way; tested in A549 cells; note: nearly all actives have a fitted effect of over 30% in size; inactives centre near -10
* hit, by the source's call; i = inactive; ? = inconclusive; nt = not tested or not shown; & = joins results of further samples; [ ] = another dose, or the depositor's remark. % is set by controls: 0 for no effect and ±100 for the full control effect; potency is the fitted concentration of half-maximal effect.

Order of values: Vaccinia Venus, VACV mCherry inh
> O=c1ccc(-c2ccc(S(=O)(=O)Nc3cccc([N+](=O)[O-])c3)s2)n[nH]1
 : 0%[7.34 µM], i[7.34 µM]
> CCCCN(C(=O)c1cccc(-n2cccc2)c1)c1c(N)n(CCCC)c(=O)[nH]c1=O
 : 7%, -5%
> Cc1cccc(OCC(=O)NC(=S)Nc2ccc(S(=O)(=O)NC3CCCCC3)cc2)c1
 : ?, nt
> CCOc1ccc(N2C(=O)CN(c3cccc4ccccc34)C2=S)cc1
 : -1%, i
> Cc1[nH]c(N=Nc2ccccc2)nc1N=Nc1ccccc1
 : -15%, ?
> Cc1ccc(CSCc2ccc(C(=O)NCCC(C)C)o2)cc1
 : -14%, i
> COc1ccc(NC(=O)N(C)C[C@H]2Oc3ccc(NC(=O)Cc4ccccc4)cc3CC(=O)N([C@H](C)CO)C[C@H]2C)cc1
 : -6%, i
> CNC(=O)c1cc(C(=O)c2ccc(C(F)(F)F)cc2F)c[nH]1
 : -7%, i
> CCN(CC)C(=S)NC(=O)C12CC3CC(CC(C3)C1)C2
 : -6%, i
> O=C(c1ccc(-c2ccc([N+](=O)[O-])cc2)o1)N1CCN(S(=O)(=O)c2cccs2)CC1
 : -6%, -30%
> CCN(c1ccc(NC(=O)COC(=O)c2ccc(C)s2)cc1)C(C)C
 : -19%, -24%
> CC(C)n1cc(C(=O)N(CC(=O)NC(C)(C)C)Cc2ccccc2)cn1
 : -12%, -20%
> CSCc1cc(C(=O)NCCN2CCOCC2)c(N)s1
 : 17%, -21%
> C/C(=N\NC(=O)C(N)=O)c1ccc(NC(=O)c2cccs2)cc1
 : 7%, 0%
> CCC(C)OC(=O)n1ccc(C(=O)Nc2nccs2)n1 (stereo unspecified)
 : ?, ?
> COc1ccc(NC(=O)C(NC(=O)c2ccc(=O)[nH]c2)c2ccc(C)cc2)cc1 (stereo unspecified)
 : -6%, -5%
> CC1(C)CC(=O)C2=C(C1)OC1=C(C(=O)CC(C)(C)C1)C2c1cc([N+](=O)[O-])cc([N+](=O)[O-])c1O
 : -9%, -7%
> Cc1ccc(-c2oc3ncnc(N)c3c2-c2ccc(C)cc2)cc1
 : -17%, -5%
> O=C(N/N=C/c1cccc(O)c1)N/N=C/c1cccc(O)c1
 : -4%, i
> COc1ccc(OC)c(S(=O)(=O)N(C)CC(=O)Nc2ccc3c(c2)OCO3)c1
 : -5%, nt
> C=CCn1c(O)c(/C=C/C=Nc2ccccc2)c(=O)[nH]c1=O
 : -9%, i
> CC(C)Sc1nc2ncnc(N)c2[nH]1
 : -14%, -15%
> OC(c1ccc(F)cc1)c1nc(/C=C/c2ccccc2)cs1 (stereo unspecified)
 : 0%, 4%
> Cc1c(Cl)cccc1NC(=O)C1C2C=CC(C2)C1C(=O)O (stereo unspecified)
 : -6%, -17%
> COc1ccc(-c2nc(SC)n(C(=O)c3ccco3)n2)cc1
 : -14%, -20%
> O=c1c2cn[nH]c2[nH]c(=S)n1-c1ccccc1
 : -9%, -12%
> NCCCC[C@H]1CN=C(N)N1CCc1cccc2ccccc12
 : -19%, -13%
> COc1cc(N(CCCn2cnc3c(SC)ncnc32)CCCn2cnc3c(SC)ncnc32)cc(OC)c1OC
 : -4%, -14%
> O=C(c1cccc(Cl)c1)C1CCCN(Cc2ccc(N3CCNC3=O)cc2)C1 (stereo unspecified)
 : -24%, -18%
> NC(=O)[C@@H]1[C@@H]2C(=O)N(c3ccc(F)cc3)C(=O)[C@@H]2[C@H]2C=Cc3ccccc3N21
 : 33%[activator], 2%

3 of the compounds above, as tab-separated lines.
canonical_smiles	Vaccinia Venus	VACV mCherry inh
Cc1c(Cl)cccc1NC(=O)C1C2C=CC(C2)C1C(=O)O (stereo unspecified)	-6%	-17%
NCCCC[C@H]1CN=C(N)N1CCc1cccc2ccccc12	-19%	-13%
NC(=O)[C@@H]1[C@@H]2C(=O)N(c3ccc(F)cc3)C(=O)[C@@H]2[C@H]2C=Cc3ccccc3N21	33%[activator]	2%

The list goes on.
Order of values: Vaccinia Venus, VACV mCherry inh
> Cc1ccc(-n2c(SCC(N)=O)nc3c(oc4ccccc43)c2=O)cc1
 : -4%&10%, 18%&10%
> O=C(O)COC(=O)C1C(c2ccccc2)C(C(=O)O)C1c1ccccc1 (stereo unspecified)
 : 7%, -2%
> CN(Cc1ccco1)C(=O)C(Cc1ccccc1)NS(=O)(=O)c1ccc2c(c1)CCC(=O)N2 (stereo unspecified)
 : -5%, i
> CCOC(=O)C1=CC[C@@H](c2ccncc2)N(S(=O)(=O)c2ccc(C)cc2)C1
 : -23%, 14%
> CC1/C=C/C=C/CC/C=C/C=C/C=C/C=C/C(OC2OC(C)C(O)C(N)C2O)CC2O[C@](O)(CC(O)C(O)CCC(O)CC(O)CC(O)CC(=O)OC(C)C(C)C1O)CC(O)C2C(=O)O (stereo partly specified)
 : -14%, i
> OCC[C@@H]1C[C@H](O)[C@@H](O)[C@]2(Cc3ccccc3O2)O1
 : 1%, i
> CC(=O)Nc1ccc(N2C(=O)CC(N3CC(C)OC(C)C3)C2=O)cc1 (stereo unspecified)
 : -10%, -12%[1.46 µM]
> CCC(C)[C@H]1CNC(=S)N1CCc1cc(C(F)(F)F)cc(C(F)(F)F)c1 (stereo partly specified)
 : -23%, -6%
> COc1ccc(S(=O)(=O)N(C)C[C@H]2Oc3c(NC(=O)Nc4ccc(C(F)(F)F)cc4)cccc3C(=O)N([C@H](C)CO)C[C@@H]2C)cc1
 : 10µM*, ?
> COc1ccc(-c2[nH]ncc2/C=C(/C#N)C(=O)NC2CCCCC2)cc1
 : -16%, -20%

Three records drawn at random from those above:
Order of values: Vaccinia Venus, VACV mCherry inh
> Cc1ccc(-n2c(SCC(N)=O)nc3c(oc4ccccc43)c2=O)cc1
 : -4%&10%, 18%&10%
> CN(Cc1ccco1)C(=O)C(Cc1ccccc1)NS(=O)(=O)c1ccc2c(c1)CCC(=O)N2 (stereo unspecified)
 : -5%, i
> CCC(C)[C@H]1CNC(=S)N1CCc1cc(C(F)(F)F)cc(C(F)(F)F)c1 (stereo partly specified)
 : -23%, -6%

(next part)
Order of values: Vaccinia Venus, VACV mCherry inh
> Cc1c(Cl)cccc1N/C(=N/S(=O)(=O)c1cccs1)c1ccccc1
 : -14%, -13%
> CC(=O)N1Cc2ccccc2C(C)CC12CCCCC2 (stereo unspecified)
 : -18%, -2%
> O=C(NCc1ccc2c(c1)OCO2)c1ccc(CSCc2ccccc2Cl)o1
 : -1%, -13%
> Nc1ncnc2c1ncn2[C@@H]1O[C@@H]2COP(O)(=S)O[C@H]2[C@H]1O (stereo partly specified)
 : -19%, -4%
> O=C(Nc1ccc2c(c1)OCCO2)c1c(Cl)cccc1Cl
 : -2%, i
> CCN(CC)S(=O)(=O)c1ccc2c(c1)nc(CCC(=O)OCC(=O)Nc1c(F)cccc1F)n2C
 : -11%, -14%
> Cc1ccc(NC(=O)C2CCCN(c3nnc(-n4c(C)ccc4C)s3)C2)cc1Cl (stereo unspecified)
 : -18%, -25%
> COC(=O)c1cccc(F)c1C(=O)c1cccc2ccccc12
 : 5%, -6%
> O=C(Nc1ccc(Br)cc1)C1CCC(=O)N1Cc1ccccc1Cl (stereo unspecified)
 : -10%, -12%
> COc1ccc2c(Sc3ccc(C)cc3)c(C(=O)NC(C)c3ccccc3)[nH]c2c1 (stereo unspecified)
 : -13%, -5%
> CN(C)CCCNc1nc2cc(-c3cnn(Cc4ccccc4)c3)sc2c(=O)n1C
 : 1%, -7%
> COc1cc(CC(=O)OCC(=O)NCc2cccs2)cc(OC)c1OC
 : -8%, -14%
> CCn1nc(C)c2c(-c3ccccc3)cc(=O)n(C(C)C(=O)NCCc3ccccc3)c21 (stereo unspecified)
 : 0%, 7%
> CC(C)C(C(=O)NCc1ccccc1)N1CCN(c2ccccc2F)CC1 (stereo unspecified)
 : -1%, -28%
> Cc1noc(C)c1COC(=O)c1ccc2c(c1)OCCO2
 : -17%, -29%
> O=C(NN=Cc1c(F)cccc1F)c1ccccc1NS(=O)(=O)c1cccs1
 : 1%, i
> CCCNC(=O)c1nc(C)n(-c2cc(Cl)cc(Cl)c2)n1
 : 0%, i
> C[C@@H]1CNC(=O)c2c(C(=O)NCc3ccc(CNC(=O)OC(C)(C)C)cc3)ncn21
 : -15%, i
> CC(=O)c1cc(-c2ccccc2)n(CCC(=O)Nc2cc(C)cc(C)c2)c1C
 : -12%, -11%
> CCn1cc2nc(SCc3ccc(F)cc3)n(Cc3ccc(Cl)cc3)c(=O)c2n1
 : -24%, -28%
> CNc1ccc(Br)cc(C(=O)/C=C/c2ccc(Cl)cc2Cl)c1=O
 : 14%, 4%
> O=C(NCc1ccccc1)C1c2ccccc2OCC(=O)N1Cc1cccnc1 (stereo unspecified)
 : 2%, 4%
> COc1ccc(/C=C/C(=O)Nc2ccccc2C(N)=O)cc1S(=O)(=O)N1CCOCC1
 : -8%, -3%
> CCOC(=O)c1cnc2ccccc2c1Nc1ccc(C(=O)O)cc1
 : -10%, i
> CCc1noc(-c2ccc(N3CCCCC3C)c([N+](=O)[O-])c2)n1 (stereo unspecified)
 : -6%, -9%
> CN(C)c1ccc(C2C=Cc3ccccc32)c2ccccc12 (stereo unspecified)
 : 2%, -13%
> COC(=O)[C@]1(Cc2ccccc2)N[C@H](CN(C)S(=O)(=O)c2ccc(OC(F)(F)F)cc2)[C@@H]2C(=O)N(C)C(=O)[C@@H]21
 : -16%, i
> O=C(Nc1ccc(C(F)(F)F)cc1)c1cc(S(=O)(=O)NCC2COc3ccccc3O2)ccc1F (stereo unspecified)
 : ?, ?
> O=C(O)C1(C(=O)O)CCC2(CCCCC2)CC1
 : 0%, i
> CCOc1ccc2[nH]c3c(=O)n(CCC4=CCCCC4)cnc3c2c1
 : 1%, i
> CCCN(CCC)C(=O)CSc1nc2n[nH]c(C)c2c(=N)n1-c1ccc(OC)cc1
 : ?, nt
> COCCSc1ccccc1C(=O)N1CCc2ccccc21
 : -28%, -29%
> COc1ccc(F)cc1S(=O)(=O)Nc1cc2c3c(c1)CCN3C(=O)CC2
 : -12%, i
> COCC(O)Cn1ccnc1[N+](=O)[O-] (stereo unspecified)
 : 3%, -14%
> COc1ccc(C(C)=O)cc1COc1cccc2c1OC(C)(C)C2
 : -10%, -14%
> CCCS(=O)(=O)NC(=O)C1(C)CCN(C(=O)c2cc(C)oc2C)C1 (stereo unspecified)
 : 7%, -4%
> CCOc1ccc(S(=O)(=O)NCCC(=O)NCc2cccnc2)cc1
 : -5%, -22%
> CC(C)OC(=O)CC(=O)c1sc2nc3c(cc2c1N)CN(C)CC3
 : 1%, -6%
> CCCCOc1ccc(CNC(=S)N/N=C/c2ccc(OC)c(OC)c2)cc1
 : ?, nt
> COc1cc(C2c3c(-c4ccccc4)n[nH]c3C(=O)N2c2ccc(C(=O)O)cc2)ccc1O (stereo unspecified)
 : 3%, -17%
> O=C1C(=O)N(CNc2cccnc2)c2ccccc21
 : -7%, -13%
> O=C1CC(C(=O)N2CCCc3ccccc32)CN1c1ccc(F)cc1 (stereo unspecified)
 : -8%, i
> O=C(NCCCSc1ccccc1)c1cnc(Cl)c(Cl)c1
 : 0%, 3%
> CCOC(=O)c1sc(NC(=O)CSc2ncccn2)c(C#N)c1C
 : -3%, -9%
> N#CCCn1cc(C(=O)Nc2ccc(C(=O)O)cc2)c(-c2cc3ccccc3o2)n1
 : -4%, i
> O=C(CSc1nnc(-c2cccc(Cl)c2)o1)N1CCc2ccccc21
 : -10%, -12%
> O=C(Cn1cc(SCc2cccc(Cl)c2)c2ccccc21)N1CCCCCC1
 : -10%, -2%
> O=C(O)[C@H](Cc1ccccc1)N1Cc2ccccc2C1=O
 : 11%, 0%
> O=c1[nH]c(=S)[nH]c2c1C(c1ccc(F)cc1)OC(CCOCc1ccccc1)C2 (stereo unspecified)
 : -10%, 2%
> CN(C)C(=O)CCc1ccc2c3c([nH]c2c1)[C@]1(CCC2CCCC2)[C@@H](C(=O)N2CCOCC2)C[C@H](CC(=O)NCCC2=CCCCC2)C(=O)N1CC3
 : ?, -26%

The list continues.
Order of values: Vaccinia Venus, VACV mCherry inh
> CCOC(=O)c1c(C)c(C(=O)NCc2ccc(OC)cc2)c(C)n1C
 : -19%, i
> Cc1cccc(-n2nc(C)c3c2NC2=C(C(=O)CCC2)C3c2ccccn2)c1 (stereo unspecified)
 : -15%, -11%
> CN1C(C(=O)NCc2cccc(C(F)(F)F)c2)CC2Cn3c(nc4cc(Cl)c(Cl)cc43)C21 (stereo unspecified)
 : -3%, -4%
> O=C(CCSc1nnc(-c2ccncc2)o1)Nc1ccccc1Cl
 : ?, nt
> CCOC(=O)c1ccc(NC(=O)CC2C(=O)N(c3ccccc3)C(=O)N2Cc2ccc(C)cc2)cc1 (stereo unspecified)
 : -14%, -9%
> CC1(C(=O)NS(=O)(=O)c2cccc(Cl)c2)CCN1C(=O)c1ccccc1CCc1ccccc1 (stereo unspecified)
 : -9%, i
> COc1ccccc1S(=O)(=O)N1CCNC(=O)C1
 : 5%, -9%
> Cc1ccc(C(C)C)c(OCc2ccc(C(=O)N/N=C/c3cccc(O)c3O)cc2)c1
 : ?, 10µM*
> CCN(CC)CCNC(=O)c1ccccc1C(=O)c1ncc[nH]1
 : -6%, nt
> C[C@@H]1CCC(=O)N(C[C@@H](C)CSc2ccc(Br)cc2)CC1
 : -26%&-15%, i
> COc1cccc(NC(=S)NC2CC3CCCC(C2)N3C2CCCC2)c1 (stereo unspecified)
 : -25%, -33%
> COc1ccc(NC(=O)N(C)C[C@@H]2OCc3cnnn3CCCC(=O)N([C@H](C)CO)C[C@@H]2C)c(OC)c1
 : -2%, -9%
> Cc1ccc(N2CC(NC(=O)c3ccc(S(=O)(=O)N4CCCC4)cc3)CC2=O)cc1 (stereo unspecified)
 : -7%[7.34 µM], -2%[7.34 µM]

Source: PubChem BioAssay (National Center for Advancing Translational Sciences (NCATS))

This is a random part of the collection; about 0.82% have a hit in one of these screens.
